# VDR inh = Inhibitors of the vitamin D receptor (VDR): qHTS; Vitamin D3 receptor (Homo sapiens), P11473; VDR-SRC2-3 peptide fluorescence polarization, 2 h; Potency, µM, for inactives: max response, negative = inhibition, most hits filed as inhibitors; hit rate 0.93% among 400,000; active = well fitted inhibition curve with a large enough effect; inconclusive = small, poorly fitted or top-dose-only effect, or another doubt; inactive = no such curve, though single readings can be large or run the other way; also: series mostly up to about 120 µM
# Target sequence (P11473 whole entry, looked up): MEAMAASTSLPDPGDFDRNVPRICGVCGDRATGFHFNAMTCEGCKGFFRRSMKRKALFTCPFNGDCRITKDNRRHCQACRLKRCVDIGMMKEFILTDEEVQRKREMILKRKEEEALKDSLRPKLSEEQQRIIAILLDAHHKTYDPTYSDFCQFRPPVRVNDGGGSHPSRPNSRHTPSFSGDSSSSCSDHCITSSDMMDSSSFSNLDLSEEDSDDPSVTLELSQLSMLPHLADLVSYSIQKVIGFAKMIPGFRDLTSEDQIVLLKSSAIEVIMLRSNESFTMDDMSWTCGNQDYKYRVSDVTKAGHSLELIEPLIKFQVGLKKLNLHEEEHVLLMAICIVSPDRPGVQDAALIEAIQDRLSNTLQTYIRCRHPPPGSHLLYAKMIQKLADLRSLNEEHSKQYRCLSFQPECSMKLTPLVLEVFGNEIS
#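 After 23 nl compound addition and a short centrifugation, plates sat for 2 hours at ambient temperature; polarization of fluorescence then indicated loss of VDR binding to peptide SRC2-3.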
# * hit, by the source's call; u = inconclusive; & = joins results of further samples; [ ] = another dose, or the depositor's remark. % is scaled to controls: 0 for no effect and ±100 for the full control effect; potency is read from the fitted curve at half-maximal effect. Only part of the results is shown. The share of hits here may be higher or lower than overall.
VDR inh | SMILES
-18% | CC(C)(Oc1ccc(Br)cc1)C(=O)Nc1cc(-c2nc3ccccc3[nH]2)ccc1Cl
-25% | CC(C)CNC(=O)N[C@@H](CC(C)C)C(=O)O
-15% | Cc1ccc(NC(=O)CSC2=C(C#N)C(c3ccco3)CC(=O)N2)cc1 (stereo not drawn)
10% | Cc1cccc(N2C(=O)C3C4C=CC(C4)C3C2=O)c1 (stereo not drawn)
-9% | CCOC(=O)C1CCN(c2nc3ccccc3nc2C(C#N)C(=O)OC(C)C)CC1 (stereo not drawn)
2% | CCOC(=O)C1(Cc2cccc(OC)c2)CCCN(Cc2c(C)nn(C(C)C)c2C)C1 (stereo not drawn)
3% | CC(=O)Nc1sc2c(c1CN1CCN(c3ccc(F)cc3)CC1)CCCC2
-1% | COc1cc(-c2nnc(SCC(=O)N(C)C3CCS(=O)(=O)C3)o2)cc(OC)c1OC (stereo not drawn)
-7% | COc1ncnc2c1NC(=O)CS2
3% | O=C(NC1CCS(=O)(=O)C1)c1cccc(S(=O)(=O)N2CCCC2)c1 (stereo not drawn)
-14% | O=C1NC(=O)C(c2ccccc2)(c2ccccn2)N1 (stereo not drawn)
15% | CC1CN(Cc2ccccc2)c2nc3c(c(=O)n(CC(N)=O)c(=O)n3C)n2C1 (stereo not drawn)
-4% | COc1ccc(CCNC(=O)c2ccco2)cc1OC
-4% | CCN(CC)c1ccc(/C=C(/C#N)C(=O)NCc2ccccc2)o1
-24% | NC(=O)N/N=C/c1sc(N2CCCCC2)nc1-c1cccs1
-12% | O=C1CC2(CCCC2)CC(=O)N1c1ccccc1
-1% | Cc1ccc(-n2c(SCC(=O)N3CCCc4ccccc43)nc3c([nH]c4ccccc43)c2=O)cc1
12% | CCC(C)NC(=O)N1c2ccccc2Sc2ccccc21 (stereo not drawn)
-1% | CCn1c(/C=C/c2ccccc2)nc2ccccc21
-10% | Cc1ccc(-c2cc(-c3ccc4c(c3)NC(=O)CO4)nc3c2COc2ccc(C)cc2-3)cc1

# Sorted by count of non-hydrogen atoms (high to low): part of the list above
VDR inh | SMILES
-1% | Cc1ccc(-n2c(SCC(=O)N3CCCc4ccccc43)nc3c([nH]c4ccccc43)c2=O)cc1
-10% | Cc1ccc(-c2cc(-c3ccc4c(c3)NC(=O)CO4)nc3c2COc2ccc(C)cc2-3)cc1
2% | CCOC(=O)C1(Cc2cccc(OC)c2)CCCN(Cc2c(C)nn(C(C)C)c2C)C1 (stereo not drawn)
-9% | CCOC(=O)C1CCN(c2nc3ccccc3nc2C(C#N)C(=O)OC(C)C)CC1 (stereo not drawn)
15% | CC1CN(Cc2ccccc2)c2nc3c(c(=O)n(CC(N)=O)c(=O)n3C)n2C1 (stereo not drawn)
3% | CC(=O)Nc1sc2c(c1CN1CCN(c3ccc(F)cc3)CC1)CCCC2
-15% | Cc1ccc(NC(=O)CSC2=C(C#N)C(c3ccco3)CC(=O)N2)cc1 (stereo not drawn)
3% | O=C(NC1CCS(=O)(=O)C1)c1cccc(S(=O)(=O)N2CCCC2)c1 (stereo not drawn)
-24% | NC(=O)N/N=C/c1sc(N2CCCCC2)nc1-c1cccs1
12% | CCC(C)NC(=O)N1c2ccccc2Sc2ccccc21 (stereo not drawn)
-4% | COc1ccc(CCNC(=O)c2ccco2)cc1OC
10% | Cc1cccc(N2C(=O)C3C4C=CC(C4)C3C2=O)c1 (stereo not drawn)
-12% | O=C1CC2(CCCC2)CC(=O)N1c1ccccc1
-25% | CC(C)CNC(=O)N[C@@H](CC(C)C)C(=O)O
-7% | COc1ncnc2c1NC(=O)CS2

# (next part)
VDR inh | SMILES
u | COc1ccc2[nH]c(=S)cc(C)c2c1
-4% | COc1ccc(/C=C\c2onc(C)c2S(=O)(=O)N2CCC(C(=O)Nc3ccc(Cl)cc3)CC2)cc1
-1% | CCOC(=O)c1c(C)[nH]c(C(=O)OCC(=O)Nc2sccc2C(N)=O)c1C
6% | COc1ccc(NC(=O)CC2C(=O)N(c3ccc(F)cc3)C(=S)N2NC(=O)c2ccccc2)cc1 (stereo not drawn)
-7% | COC(=O)C(Cc1ccccc1)N1CCS(=O)(=O)CC1 (stereo not drawn)
14% | Cc1cc(N)ccc1S(C)(=O)=O
0% | Cc1ccccc1NC(=O)CSc1nnc(-c2cccc(Cl)c2)o1
13% | COc1cccc(C(=O)Nc2ccccc2N2CCCC2)c1
13% | CCCC(c1nnnn1CC1CCCO1)N1CCN(c2ccccc2)CC1 (stereo not drawn)
7% | O=C(CCC(=O)N(CC(=O)NC1CCCC1)C1CCCC1)Nc1ccccn1
-11% | Cc1oc(-c2ccccc2F)nc1CS(=O)CC(=O)NCc1ccccn1 (stereo not drawn)
-11% | COc1cc2c(cc1OC)CN(C(=O)c1cccc(S(=O)(=O)N3CCc4ccccc43)c1)CC2
-9% | COc1ccccc1NC(=O)COC(=O)C1CCCC1
u | Cc1ccc(-c2cc(C(=O)NC3CCCC3)no2)cc1
-1% | Cc1ccccc1-n1nc2c(c1NC(=O)c1ccc(Br)o1)CSC2
6% | C(=N\n1cnnc1)/c1cn(Cc2ccccc2)c2ccccc12
-2% | COc1ccc(-c2c(C)oc3c(CN4CCOCC4)c(O)ccc3c2=O)cc1
-7% | Cc1ccc(-c2nnc(Nc3cccc(O)c3)c3ccccc23)cc1S(=O)(=O)N1CCN(C)CC1
-1% | COc1cc(C(=O)NC2CCN(C)CC2)ccc1Nc1ncc2c(n1)N(C1CCC(O)CC1)CCC(=O)N2C (stereo not drawn)
9% | CCc1c(CN2CCN(c3ccc(F)cc3)CC2)csc1C
12% | CC1CN(S(=O)(=O)Cc2ccccc2)CC(C)O1 (stereo not drawn)
5% | Cc1cccc(N2CCN(C(=O)c3ccc(CS(=O)Cc4cccc(Cl)c4)o3)CC2)c1C (stereo not drawn)
-3% | CC(=O)Nc1ccccc1NC(=O)COc1cccc2ccccc12
-4% | COc1cc(OC)cc(-c2nnc(NC(=O)CCS(=O)(=O)c3ccc(F)cc3)o2)c1
4% | CC(=O)N1CCN(c2ccccc2NC(=O)c2cc3ccccc3o2)CC1
18% | C=CC1=CCN(S(=O)C(C)(C)C)[C@H]1CCO (stereo partly drawn)
-17% | CCOc1cc(C(=S)N2CCOCC2)ccc1OC(=O)c1cc(OC)c(OC)c(OC)c1
39%[activator] | COc1cc2cc(C(=O)N3CCOCC3)cc(-c3ccc(C)cc3)c2cc1OC
-4% | O=C(OCC(=O)N1CCc2ccccc21)c1cccc(S(=O)(=O)N2CCCc3ccccc32)c1
-14% | COc1ccc(CN(CC2CCC(C(=O)O)CC2)C(=S)Nc2ccccc2OC)cc1 (stereo not drawn)
-3% | Cc1c(Cl)cccc1NC(=S)N1CCN(Cc2ccc3c(c2)OCO3)CC1
11% | COc1ccc(S(=O)(=O)N(C)C)cc1NC(=O)CSc1nc(N)cc(N)n1
-1% | CC(OC(=O)c1ccc2c(c1)OCCO2)C(=O)NC1CCCCC1C (stereo not drawn)
0% | C=CCN(c1ccccc1)S(=O)(=O)c1cccc(C(=O)NCC(c2cccs2)N2CCOCC2)c1 (stereo not drawn)
4% | CC1(C)CC(=O)c2sc(NC(=O)c3cccs3)nc2C1
-2% | Cc1ccc(C)c(Cn2cnc3c(nnn3-c3ccc(F)cc3)c2=O)c1
0% | Cn1c(=O)c2[nH]c(N/N=C(/C#N)C(N)=O)nc2n(C)c1=O
13% | CCCC(=O)Nc1cnc(NC(=O)c2cccc(F)c2)cc1C
30%[activator] | Cc1cc(C(=O)CSc2nc3ccc(Cl)cc3[nH]2)c(C)n1CC1CCCO1 (stereo not drawn)
11% | N#CC1(NC(=O)COC(=O)Cc2n[nH]c(=O)c3ccccc23)CCCCC1

# Filtered by structure: the compounds so far containing a COOH group (two)
VDR inh | SMILES
-25% | CC(C)CNC(=O)N[C@@H](CC(C)C)C(=O)O
-14% | COc1ccc(CN(CC2CCC(C(=O)O)CC2)C(=S)Nc2ccccc2OC)cc1 (stereo not drawn)

# The list goes on.
VDR inh | SMILES
-14% | Cc1ccccc1C(=O)NNC(=O)CSc1nnc(C)n1-c1ccccc1
-14% | O=C(NNC(=O)C1CCN(C(=O)Nc2ccccc2)CC1)c1ccc([N+](=O)[O-])cc1
28µM* | Cn1c(/C(C#N)=C/c2ccc(C(F)(F)F)cc2)nc2ccccc21
4% | COCCn1nnnc1C(c1ccccc1OC)N1CCc2ccccc2C1 (stereo not drawn)
-7% | COc1cc2c(cc1NC(=O)C(C)Oc1ccc(Cl)cc1Cl)oc1ccccc12 (stereo not drawn)
5% | CCC(=O)/C(=C(/O)c1ccccc1)c1nc2ccccc2[nH]1
-14% | Cc1cc(Cn2nc(C(=O)NCc3cccs3)cc2-c2ccccc2)on1
-2% | CCn1cc2nc(SCc3cccc(Cl)c3)n(Cc3ccc(C)cc3)c(=O)c2n1
1% | CCOC(=O)C1=C(CN2CCN(c3cc(C)ccc3C)CC2)NC(=O)NC1c1ccccc1 (stereo not drawn)
13% | CN(CC(=O)Nc1ccc(OC(F)(F)F)cc1)C(=O)Cc1cccs1
-5% | O=C(O)C12CC3CC(C1)CC(n1ncc(NCc4ccccc4)c(Cl)c1=O)(C3)C2
-6% | O=C(Nc1ccc(Cl)cc1)/C(=C1\CCCN1)[N+](=O)[O-]
10% | C[C@@H](N)C(=O)NC[C@H]1CC[C@H](C(=O)N[C@@H](Cc2ccccc2)C(=O)O)CC1
-5% | CCc1nnc(NC(=O)CCC(=O)NCc2ccccc2OC)s1
2% | CN(C)Cc1c(C(=O)N/N=C/c2cccc(OCc3ccc(F)cc3)c2)nnn1-c1nonc1N
17% | Cc1nnc(SCSc2nnc(C)s2)s1
-11% | O=C(c1ccc(C(F)(F)F)cc1)N1CCC(=O)N(C(COCc2ccc(Cl)cc2)Cc2ccccc2)CC1 (stereo not drawn)
-8% | CCN(CC)CCCNC(=O)CSc1nc2nc(C)c(Cc3ccccc3C)c(C)n2n1
-19% | O=C(/C=C/c1cn(-c2ccccc2)nc1-c1cccnc1)N1CCCCC1
6% | CC(C)NC(=O)N1CCC2(CC1)CCN(C(=O)c1csnn1)CC2
-5% | N/C(Cc1ccc([N+](=O)[O-])cc1)=N\OC(=O)c1ccc(Br)o1
8% | CC1CCCC(NC(=O)COC(=O)COc2ccc(C#N)cc2)C1C (stereo not drawn)
14% | CCOC(=O)c1oc2ccc3c(c2c1C)C(=O)CC1(CCN(C(=O)OCC)CC1)O3
0% | CC(C)c1ccc(C2N3CC4(C)CN2CC(c2ccccc2)(C3)C4=O)cc1 (stereo not drawn)
u | CCOC(=O)c1c(-c2ccc(C)cc2)csc1NC(=O)C1CC=CCC1C(=O)O (stereo not drawn)
-5% | CCN1C(=O)C(O)(CC(=O)c2ccc3c(c2)OCCO3)c2ccccc21 (stereo not drawn)
4% | O=C(CN1C(=O)C2C3CCC(C3)C2C1=O)OCC(=O)c1ccc(Br)cc1 (stereo not drawn)
-2% | N#CC1=C(N)OC2=C(C(=O)CCC2)C1c1cccs1 (stereo not drawn)
1% | CCCC(=O)c1ccc(N2CCN(C(=O)c3ccccc3Br)CC2)c(F)c1
-18% | Clc1ccc(CNCC2CCCO2)c(Cl)c1 (stereo not drawn)
12% | Cc1ccc2c(=O)cc(CSCC(=O)Nc3nnc(C)s3)[nH]c2c1
-1% | Cc1cc(N2CCN(C)CC2)nc2ccc(NC(=S)NCCC(C)C)cc12
9% | CCCC(=O)NC(Nc1cccc(C(F)(F)F)c1)C(Cl)(Cl)Cl (stereo not drawn)
-10% | c1ccc(-n2ncc3c2ncn2nnnc32)cc1
5% | COc1c2ccc(OCC/C(C)=C/C(=O)C=C(C)C)cc2nc2occc12
-7% | Cc1cccc(N(C(=O)c2snc(C(N)=O)c2N)C(C(=O)NCC2CCCO2)c2ccc(N(C)C)cc2)c1 (stereo not drawn)
-4% | c1ccc(NCc2cccc3ccccc23)nc1
-14% | CCc1nc(SCC(=O)Nc2ccc3c(c2)OCCO3)c2oc3ccccc3c2n1
u | CCCCCCCCCS(=O)(=O)Nc1cc(C)ccn1
-8% | COc1ccc(C2CC(=O)c3cc(-c4nc(-c5ccc(Cl)cc5)cs4)c(=O)[nH]c3C2)cc1 (stereo not drawn)
-6% | COc1cc(OC)c(NS(=O)(=O)c2cc3c(cc2C)N(C(C)=O)CCO3)cc1Cl
11% | CCc1ccc2nc(N=C(N)N)nc(C)c2c1
-12% | Cc1ccc2[nH]c(C(=O)N/N=C/c3ccccc3C(=O)O)c(-c3ccccc3)c2c1
8% | O=C(NCCCCc1ccccc1)C1CC(c2cc(C(F)(F)F)cc(C(F)(F)F)c2)=NO1 (stereo not drawn)
-18% | COc1ccccc1OCC(=O)OCc1cc(-c2ccco2)on1
12% | CCc1nnc2n1N=C(c1ccc([N+](=O)[O-])cc1)CS2
16% | Cc1cc(NC(=O)CSc2nc3ccc(Cl)cc3[nH]2)no1
u | CC1CCc2c(sc(NC(=O)c3nc4ncccn4n3)c2C#N)C1 (stereo not drawn)
5% | COC(=O)C1CN(C(=O)c2ccc(OC(F)F)cc2)c2ccccc2O1 (stereo not drawn)
5% | Cc1cc(C(F)(F)F)n(-c2nc(C(=O)NN)cs2)n1

# (listing goes on)
VDR inh | SMILES
6% | O=C(CN(c1ccc(F)cc1)S(=O)(=O)c1ccc2c(c1)OCCO2)NCC1CCCO1 (stereo not drawn)
9% | CCCCN(C)C(=O)c1cn(-c2cccc(OC)c2)c(=O)c2ccccc12
4% | CCc1ccccc1NC(=O)Nc1cc(C(=O)NCc2ccccc2OC)ccc1N1CCCC1
2% | CCn1ccnc1CN(C)Cc1cn(-c2ccc(C)cc2)nc1-c1cccc(C)c1
-5% | O=C(Nc1ccc(-c2csnn2)cc1)C(Cl)(Cl)Cl
-7% | COc1ccc(NCC(O)Cn2cnc3c2c(=O)n(C)c(=O)n3C)cc1 (stereo not drawn)
10% | Cc1noc(C)c1-c1cc(Nc2ccccc2)ncn1
-6% | Cc1ccc(-n2c(=O)c3sc4ccccc4c3n(C)c2=O)cc1F
-7% | C=CCNC(=O)C1CC1(c1ccc(C)cc1)c1ccc(C)cc1 (stereo not drawn)
-2%&-7% | CCCCN(CC)CCNC(=O)Cn1cnc2sc(C)c(S(=O)(=O)N3CCC(C)CC3)c2c1=O

# Screens (PubChem)
